# Bioassay records deposited in PubChem BioAssay by several laboratories.
# Mtb hypoxia rep: PubChem AID 1159583; hit rate 0.1% among 300,000; fluorescence inhibition, % (test concentration not listed); M. tuberculosis hypoxia-regulated fluorescent reporter, fluorescence;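 active = 35 to 45% if threefold the growth effect, above 45% if 1.5-fold the growth effect; inactive = the rest, general growth blockers included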;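 also: wells of about 50 µL received 100 nL stock; 0% = vehicle wells and 100% = reference inhibitor wells; whole bacteria with a GFP reporter of the hypoxia response; strong numbers were not always called active; many hits fall short of the cut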
# Autofluor counter: compound fluorescence in toxin protease inhibitor counterscreen; hit rate 3.1% among 360,000; compound autofluorescence counterscreen, microsphere flow cytometry; active compounds read high; fluorescence intensity (concentration not given with the values);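 active = at least 3 SD above the mean of all compounds, about 16000 in these data; inconclusive = too few beads counted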;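 also: 100 nL of 1 mM stock went into each well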
# PrP UTR inh: inhibition of PrP 5' UTR reporter expression | cell-based PrP 5' UTR mRNA reporter, plate reader | inhibition, % (no concentration beside the values) | hit rate 0.35% among 340,000 | AID 488862, 2010;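 active = every replicate at 50% or more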;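 also: 0 = median of the neutral control wells; tested in H4 reporter cells; numbers are from one replicate; inactives centre near -14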
# BJeLR viability: MLPCN primary cell-based screen for lethality selective to Ras in HRASV12 cells; hit rate 0.17% among 300,000; BJeLR (HRASV12) viability, CellTiter-Glo ATP luminescence, 48 h; reference of the scale not given here; inhibition, % (no concentration beside the values);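 active = replicate mean above 50%; inconclusive = above 50% but judged a plate artefact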;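 also: 50 nL library stock added to about 25 µL; numbers are from one replicate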
# Sa ugtP lethal: growth inhibition of ugtP-null S. aureus, primary screen, RN4220 ugtP deletion, OD600; 16 h; some inactives read as strong as hits; growth inhibition, % (concentration not given with the values); hit rate 0.54% among 330,000;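 active = z-score under -3 and OD600 up to 0.15 on both plates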;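 also: plate controls were untreated wells for no effect and antibiotic for full effect; wells of about 80 µL received 100 nL stock; the first replicate is given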
# RN4220 kill: growth inhibition of S. aureus RN4220, primary screen, OD600; inhibition, % (no concentration beside the values); AID 1259311, 2017; hit rate 0.33% among 330,000; 16 h;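 active = z-score of -3 or lower and OD600 up to 0.18 on both plates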;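 also: plate controls were untreated cells for no effect and reference antibiotic for full effect; stock transfer was 100 nL into about 80 µL; one replicate is shown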
# Mtb hypoxia rep growth: second read-out of Mtb hypoxia rep, no call of its own (marks repeat the call); growth inhibition, %; measured here: M. tuberculosis growth (absorbance);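 0% = vehicle and 100% = reference antibiotic; read after six days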
# * hit, by the source's call; ? = inconclusive; · = not tested or not shown.
SMILES,Mtb hypoxia rep,Mtb hypoxia rep growth,Autofluor counter,PrP UTR inh,BJeLR viability,Sa ugtP lethal,RN4220 kill
Cc1ccc(Cn2c(C3CCCN3c3nc(-c4ccc(F)cc4)cs3)nc3cc(Cl)c(Cl)cc32)cc1 (stereo not given),-1.1,18.8,3566,-3.0,-3.4,-21.4,-5.8
Cc1c(N(C)CS(=O)(=O)O)c(=O)n(-c2ccccc2)n1C,10.7,17.9,5941,57.8*,·,-2.8,1.2
CC(C)[C@H](N)C(=O)NC[C@H](CC(=O)NCC1CCC(C(=O)O)CC1)c1ccc(Cl)cc1 (stereo not given in full),5.4,8.5,·,·,·,9.9,4.1
CN(C)C(CNC(=O)CCNS(=O)(=O)c1ccccc1C(F)(F)F)c1ccccc1 (stereo not given),0.7,-5.5,2882,-18.0,·,1.7,3.2
Cc1cc(C)cc(N(CCC#N)C(=O)CSc2nc3ccccc3c(=O)[nH]2)c1,1.0,3.4,2785,2.8,·,-10.3,2.6
O=C1C(=O)N(c2ccccn2)C(c2cccc([N+](=O)[O-])c2)/C1=C(/O)c1ccc(Br)cc1 (stereo not given),-1.4,12.9,3206,-31.6,-5.5,2.1,1.6
O=C(Nc1ccc(Cl)c(C(F)(F)F)c1)c1ccncc1,19.8,9.9,4541,-5.2,12.0,2.1,-5.9
COc1ccccc1C=Nn1nnnc1N,-6.1,1.8,·,·,·,8.8,0.9
Cc1nn(-c2ccccc2)c(N)c1C1(O)C(=O)N(C(C)C)c2ccccc21 (stereo not given),8.7,-0.4,3330,-3.9,-6.3,0.0,3.9
Cc1c(C(=O)c2ccc(N(C)C)cc2)c2ccccn2c1CCC#N,7.2,2.6,2073,-19.6,4.2,-1.2,11.9
COc1ccc(N2C(=O)CN=C2Nc2cccc(C)c2C)cc1OC,·,·,3343,0.5,-7.3,13.8,5.2
CCOC(=O)c1cnc2c(C(=O)OC)cccc2c1NCc1cccnc1,-1.8,10.0,2258,-11.2,-1.3,14.5,0.7
CN(C)c1ccc(/C=N/NC(=O)CNC(=O)c2ccncc2)cc1,·,·,6146,-37.3,-6.9,·,·
CN(Cc1ccccc1)S(=O)(=O)c1ccc(Cl)c(C(=O)NCCCN2CCCC2=O)c1,-8.7,-3.0,6331,-7.3,·,2.3,5.0
O=C(c1ccccc1)N1CCN(C(=O)c2ccccc2)C1c1ccccc1,·,·,2473,-19.8,-7.4,8.8,11.9
Cc1c(Cl)cn2c(=O)cc(CN(C)Cc3nc4ccccc4c(=O)[nH]3)nc2c1Cl,-6.0,11.8,·,·,-6.6,5.1,5.5
O=C1CCCc2c1nc(-c1ccc(F)cc1)n2O,17.2,2.0,4146,9.4,-1.5,3.3,2.9
Cc1nc2ccccc2n1/N=C/c1cccnc1,·,·,24451*,-7.1,-9.6,·,·
CC1(c2ccco2)NC(=O)NC1=O (stereo not given),11.5,7.2,4073,-5.2,-1.3,4.5,-0.2
COc1ccc(-c2noc(CSc3nc(-c4ccccc4)cc(=O)[nH]3)n2)cc1,-14.7,-5.8,11893,-10.7,4.2,-9.8,2.0
CCOC(=O)C1CCN(Cc2ccc(F)cc2F)CC1,-2.4,1.3,8227,-10.4,4.5,-5.0,4.5
CC(=O)Nc1ccc(NC(=O)CN(C)S(=O)(=O)c2ccc3nc(C)sc3c2)cc1,-3.6,2.4,4454,-5.8,5.2,-11.0,1.4
CCN(CC)C(=O)CSc1nnc(-c2ccc(F)cc2)n1N,·,·,5531,-4.2,-4.3,2.0,-2.6
CC(C)N1CCc2c(sc(NC(=O)c3ccc(S(=O)(=O)N(C)CC4CCCO4)cc3)c2C(N)=O)C1 (stereo not given),1.9,13.1,4169,-6.4,3.8,13.8,4.0
CC(=O)Nc1ccc(OCC(=O)N2CCC(Cc3ccccc3)CC2)cc1,-8.1,-12.8,4460,-6.9,3.0,10.1,16.5
COc1ccc(-c2nc(C#N)c(NCCCN(C)C)o2)cc1OC,-2.6,-11.3,9338,-20.8,13.3,-4.0,-3.2
O=C1CN(C(=O)c2ccccc2Cl)c2ccccc2N1,2.3,-3.5,2983,-3.1,3.9,5.9,6.8
CSCCC(=O)N1CCC(n2nccc2NC(=O)CCc2ccccc2)CC1,11.4,8.8,5497,-12.9,5.1,6.2,4.2
CC12CC3(C)CC(C)(C1)CC(C(=O)NCC(=O)O)(C2)C3,-8.2,-7.4,4328,-13.7,-2.9,3.3,4.7
CCOC(=O)CC(=O)Nc1ccsc1C(N)=O,9.3,11.9,6157,-15.6,-0.8,2.2,1.6
O=C(c1cccs1)N1CCN(c2nnc(-c3ccccc3)c3ccccc23)CC1,11.3,5.2,4558,-14.4,-1.0,-3.5,43.7
O=C(NCCNC(=O)c1cccnc1)c1ccc(Br)cc1,4.1,6.8,5738,-16.6,3.0,2.2,4.1
N#CCSc1n[nH]c2nc3c(c(=O)n12)C1(CCCC1)Cc1ccccc1-3,6.3,12.2,2927,-5.3,1.3,6.6,-12.0
CSCCC(NC(=O)c1ccccc1Br)C(=O)N1CCCCCCC1 (stereo not given),5.7,-3.4,5773,-0.4,10.8,8.3,-0.6
COc1cc(/C=C\C(=O)O)cc(S(=O)(=O)N2CCCCCC2)c1OC,6.0,5.4,6054,-19.9,3.4,8.4,0.5
O=C(/C=C\c1ccc(-c2ccccc2)o1)c1ccccc1,1.8,5.2,2216,-26.1,-17.2,2.3,20.7
O=C(COC(=O)Cc1ccc(Br)cc1)NC1CC1,-1.0,0.7,3954,-35.3,·,7.9,4.1
COc1cc(C(C[N+](=O)[O-])c2c(C)[nH]c3ccccc23)cc(OC)c1OC (stereo not given),4.5,15.8,21574*,-5.7,5.0,-16.7,-10.9
Cc1cccc(C)c1-n1c(C)cc(/C=N/NC(=O)c2ccncc2)c1C,·,·,22105*,-12.4,-7.1,·,·
C/C(=C1/SC(N2CCCC2)=NC1=O)c1ccc(Br)cc1,75.7*,47.9*,2540,-23.2,-10.1,-13.2,-5.4
Cc1ccc(C(=O)Oc2ccccc2C(=O)N2CCOCC2)cc1,-4.2,2.4,12091,-2.8,3.2,-0.3,-1.5
Cc1cc(NC(=O)c2ccc(Cl)cc2)n(CCC#N)n1,1.0,-4.3,5511,-6.7,3.6,5.3,2.6
Cc1cccc(C(=O)N/N=C/c2coc3ccccc3c2=O)c1,·,·,5852,-14.5,5.0,·,·
COc1cccc2[nH]c(C(=O)NN)c(N)c12,-17.8,-1.7,4899,-3.0,-9.4,1.3,3.8
CN1CCN(S(=O)(=O)c2cccc(C(=O)Nc3cc(Cl)ccc3N3CCOCC3)c2)CC1,5.6,2.0,?,4.1,-4.0,2.7,2.0
O=C(Nc1ccc2oc(=O)ccc2c1)c1cc2ccccc2o1,2.3,-2.7,2974,-99.3,4.8,-15.1,5.0
Cc1nn(C)cc1CN(C)Cc1c(C(=O)N(C)Cc2ccccc2)nc2ccccn12,8.2,6.3,3422,-29.1,-7.3,-0.9,7.6
C=CCC1CCCC(=O)N2CCCC12 (stereo not given),6.4,6.1,3223,-17.1,·,0.0,2.5
COc1cc(CNc2ccc(N3CCCC3)cc2)ccc1OCc1ccccc1,20.5,10.0,1761,-32.3,·,-2.1,3.1
Fc1ccc(NCc2ccccc2F)cc1Cl,5.7,3.6,7825,-10.0,-0.3,3.4,-5.6

# (cont.)
SMILES,Mtb hypoxia rep,Mtb hypoxia rep growth,Autofluor counter,PrP UTR inh,BJeLR viability,Sa ugtP lethal,RN4220 kill
CN(C)S(=O)(=O)c1cccc(NC(=O)COC(=O)CCC(=O)c2ccc(F)cc2)c1,-0.9,-0.9,1946,7.3,1.2,15.9,3.4
Cc1ccc(CNC(=O)c2ccc(NC3=NC4CS(=O)(=O)CC4S3)cc2)cc1 (stereo not given),-1.3,-0.6,4603,-9.7,1.9,-4.7,6.9
CCCCOc1ccc2c(C)cc(=O)oc2c1OCCCC,0.1,10.1,9387,-12.9,1.0,-12.6,16.2
C#CC(C)(CC)NC(=O)c1cc2cccc(CC=C)c2oc1=O (stereo not given),14.8,8.5,4138,-10.1,-10.7,7.1,-6.2
CCc1ccccc1NC(=O)N[C@@H](C)C(=O)O,-1.3,-0.9,9952,-9.0,-0.9,3.0,2.0
CN(Cc1ccccc1)C(=O)c1ccccc1C(=O)O,-4.5,-2.8,2241,-19.6,1.6,-0.3,0.8
Cc1c(NC(=O)COc2ccc3ccccc3c2)c(=O)n(-c2ccccc2)n1C,3.0,5.1,·,·,2.5,9.5,0.3
CC1CN(CCCCSc2ccc(Cl)cc2)CC(C)O1 (stereo not given),6.7,-1.5,3751,-3.3,1.4,3.8,6.1
COc1ccc(Oc2nccc(-c3ccc(F)cc3)c2C#N)cc1,·,·,2860,76.4*,-7.7,0.9,6.3
Cc1ccc(C)c(/C(O)=C2\C(=O)C(=O)N(CCCN3CCOCC3)C2c2cccnc2)c1 (stereo not given),-5.1,8.9,2965,8.7,-9.4,7.9,15.3
Cc1cc(C)c(C(=O)c2cccs2)c(C)c1,9.9,14.0,4309,-10.7,·,9.6,4.3
O=C(Cc1ccc(S(=O)(=O)N2CCOCC2)s1)Nc1cc(C(F)(F)F)ccc1N1CCCC1,1.8,-3.0,·,0.1,5.5,4.4,4.6
